Screening data as filed in PubChem.
NPYLR7 agonist = mosquito NPYLR7 agonism. HEK293T NPYLR7/Galpha15, GCaMP6s calcium fluorescence. hit rate 0.15% among 270,000. activation, % at 10 µM; in the data active = activation above about 40%;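 also: 0% = vehicle and 100% = reference agonist at the receptor; some compounds past the cut are filed as inactive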
NPYLR7 agonist max-min = also measured in NPYLR7 agonist; calls as there; activation, %; measured here: Max-Min RFU normalised activation; some inactives read as strong as hits;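 span of the calcium signal over five minutes; 0% = vehicle and 100% = native peptide agonist; compound fluorescence can raise it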
An asterisk follows results filed as active; & = joins results of further samples.

Every second line gives: NPYLR7 agonist, NPYLR7 agonist max-min
O=C(CCc1ncc(-c2ccccc2F)o1)Nc1ccc(F)c(F)c1F
    3, 4
CCc1nnsc1C(=O)NC(c1cccs1)C(C)(C)C (centres undefined)
    0&1, -2&-13
Cc1cc(C(=O)N2CCN(c3ncccc3C(=O)NCc3ccc4c(c3)OCO4)CC2)n(C(C)(C)C)n1
    17, 9
CCCCOc1ccc(S(=O)(=O)n2nc(C)c(S(=O)(=O)N3CCCC3)c2C)cc1
    1, 2
Cc1cc(C)n(-c2nnc(C)n2/N=C\c2ccc(OC(C)C)cc2)n1
    -1, 0
COCCN(Cc1c(-c2ccccc2)noc1N1CCSCC1)C(=O)c1cccc(OC)c1
    6, 7
CCC1CN(CCn2cccn2)CCN1CCOC1CCCCC1C (centres undefined)
    -4, -7
Cc1oc(-c2ccoc2)nc1CN1CCN(c2ccccc2)CC1C (centres undefined)
    -8, -13
OC(c1cccs1)c1nnc(Nc2ccc(Oc3ccccc3)cc2)s1 (centres undefined)
    4, 3
CCOc1ccc(C2(O)C(C)[N+]3=C(CCCC3)N2c2ccc(OC)cc2)cc1 (centres undefined)
    -1, -5
CC(C)(C)c1cc2nc(-c3ccccc3Cl)cc(C(=O)O)n2n1
    -5, -4
CC(NS(=O)(=O)c1cccc(C#N)c1)c1cccs1 (centres undefined)
    4, 3
CC(C)c1nccn1Cc1cc(C(=O)NCC2CCCO2)n[nH]1 (centres undefined)
    13, 8
COc1ccccc1C1CC(c2cccc(F)c2)=NN1C(=O)CN1CCC2(CC1)OCCO2 (centres undefined)
    2, -2
CN1CCN(NS(=O)(=O)c2ccc3ccccc3c2)CC1
    2, 0
COc1ccc(OC)c(C2CCCN2Cn2nc(-c3ccccc3OC)n(C)c2=S)c1 (centres undefined)
    1, 7
CCC(NC(=O)c1nnn(-c2cccc(Cl)c2)c1C)C1CCOCC1 (centres undefined)
    -4, -5
CCc1c(C(=O)OC)nnc2cc(C)nn12
    -2, 19
CCOC(=O)C1(Cc2ccccc2)CCN(Cc2c[nH]c3ccccc23)CC1
    5, 0
O=C(NCC1CCCCN1)c1cc(OCC(F)(F)F)ccc1OCC(F)(F)F (centres undefined)
    19&1&-4, 9&-4&-19

Later entries:
Every second line gives: NPYLR7 agonist, NPYLR7 agonist max-min
O=C(NC1CCCC1)N1CCN(S(=O)(=O)c2cc(Cl)ccc2Cl)CC1
    -5, -6
O=C(N1CCC(Cc2ccc3c(c2)OCO3)CC1)C(F)(F)C(F)F
    2, 0
COc1ccc(N2CCN(C(C)C(=O)N(C)c3ccccc3)CC2)cc1 (centres undefined)
    11, 7
O=C1OCN2c3ccccc3C34OC12c1ccccc1N3COC4=O
    3, 1
O=C(NC1CCSc2ccccc21)c1cc(Cl)c2c(c1)OCO2 (centres undefined)
    11, 9
CCCCCc1ccc(C(=O)N2CCCC2C(=O)Nc2nnc(-c3cccc(OC)c3)s2)cc1 (centres undefined)
    13, 13
O=C(NC12CC3CC(CC(C3)C1)C2)N1CCCN(c2nc(Cc3ccc(Cl)cc3)ns2)CC1
    -10, -12
COC1=C(Cl)C(=O)N(c2c(C)cccc2C)C1=O
    3, 2
O=C(c1ccco1)N(CCCn1ccnc1)c1nc2c(F)cc(F)cc2s1
    -13, -16
CC(C)(C)n1ncc2c(=O)n(NC(=O)C3(c4ccc(Cl)cc4)CCCC3)cnc21
    7, 2
COC(=O)c1ccc(CNC(=O)c2ccc3c(c2)OCO3)cc1
    0, 7
O=C1NCCN2CCN(C(=O)Nc3ccc(F)c(C(F)(F)F)c3)CC12 (centres undefined)
    -2, -4
CCCCc1ccc(NC(=O)COc2cc(=O)n(-c3ccccc3)nc2C(=O)OCC)cc1
    5, 3
O=C(Cc1ccccc1O)NCc1ccc2[nH]c3c(c2c1)CCCC3
    -2, -2
CC1CN(c2cc(Cl)nc(SCC(=O)NCCN3CCOCC3)n2)CCN1C(=O)CC(C)(C)C (centres undefined)
    17, 17
COc1ccc(OC)c(-n2c(C)c(C)n3c4c(=O)n(C(C)C(C)=O)c(=O)n(C)c4nc23)c1 (centres undefined)
    -1, 7
CCOc1ccc([C@H]2C3=C(C[C@H](c4cccs4)CC3=O)N=C3NNC(=O)C32)cc1 (some centres undefined)
    -6, -10
N#C/C(=C/c1ccc(F)cc1F)S(=O)(=O)c1ccc(Br)cc1
    3, 4
CC1(Cc2ccc(S(C)(=O)=O)cc2)C(=O)Nc2ccc(OC(F)(F)F)cc21 (centres undefined)
    2, 2
CCCCN1c2ccccc2N(CCCC)S1(=O)=O
    11, 9

Later entries
Every second line gives: NPYLR7 agonist, NPYLR7 agonist max-min
Cc1c(Cn2cnc(C#N)n2)noc1-c1ccc(F)cc1
    17, 11
Cc1cccc(COCC2CN(C(=O)C3(c4ccccc4)CC3)CCO2)c1 (centres undefined)
    -9, -14
O=C(NC[C@@H]1CCCO1)C(=O)c1ccc(C2CCCCC2)cc1
    13, 3
CN=C1SC(CC(=O)NCCCOC(C)C)C(=O)N1C (centres undefined)
    -10, -17
C=CCOc1c(OC)ccc2c1CN(CCOC)C(=O)CCN2CC(O)CCC (centres undefined)
    2, 11
CC(C)c1cc(=O)[nH]c(-n2nc(-c3cccs3)cc2NC(=O)COc2ccccc2F)n1
    0, -1
O=C(CCN1C(=O)CCC1=O)Nc1cccc2ccccc12
    3, 2
CC(Cc1ccc(O)c(O)c1)C(C)Cc1ccc(O)c(O)c1 (centres undefined)
    -1, -3
Nc1cc(-c2cccc(Cl)c2)nn1-c1ccc(C(=O)N2CCc3ccccc3C2)cc1
    14, 8
O=C1c2ccccc2C(=O)N1CNc1ccc(Cl)cc1Cl
    14, 13
O=C(Nc1ccc(Cl)cc1)c1cc(S(=O)(=O)NCc2ccccc2)ccc1Cl
    -1, -7
COc1ccc(OC)c(NC(=O)C2(C)CCN2C(=O)Cc2ccccc2)c1 (centres undefined)
    9, 8
COc1cccc(OCC2c3ccsc3CCN2C(=O)CN(C(=O)c2cccc(OC)c2)C2CC2)c1 (centres undefined)
    -3, 3
NC(=O)c1ccc(NC(=O)CCCc2ccc(Br)s2)cc1
    0, 84
CCOC(=O)C1=C(C)N=c2s/c(=C\c3ccc(OC)c(Br)c3)c(=O)n2C1c1ccccc1 (centres undefined)
    9, 13
O=C1OC(c2cccc(Br)c2)=NC1=Cc1ccc2ccccc2c1
    13, 18
CCOc1ccc(C(C2Sc3nc(CC)nn3C2=O)N2CCOCC2)cc1 (centres undefined)
    -1, -7
CCOc1cn(C)c(C(=O)Nc2ccccc2CC)cc1=O
    4, 3
CCCCN(CC(=O)N(CCc1c[nH]c2ccccc12)Cc1ccccc1)S(=O)(=O)c1c(C)cc(C)cc1C
    11, 22
CCc1ccc(OCCSc2nc3ccccc3n2CC(=O)N2CCOCC2)cc1
    2, 14

Next compounds:
Every second line gives: NPYLR7 agonist, NPYLR7 agonist max-min
Cc1cc(O)cc(O)c1C(=O)O
    -15, -19
CN(C)CCNC(=O)Cn1nc(C(F)F)cc1C1CC1
    2, 1
CC(=O)OCN=CC1=C(O)c2ccccc2C1=O
    -2, -3
COc1ccc(C2=N/C(=C/c3cc4ccccc4n3C(C)=O)C(=O)O2)cc1OC
    -13, -17
CCOc1ccccc1N1CCN(S(=O)(=O)c2ccc(I)cc2)CC1
    5, 3
OCC1CCCN1c1cc(NCC2COCCO2)ncn1 (centres undefined)
    8, 5
Cc1ccc(NC(=O)c2cn(C)c3c(=O)n(-c4ccc(C)cc4)c(=O)[nH]c23)cc1
    13, 12
COc1c(Br)cc(Cl)cc1S(=O)(=O)N1CCN(C(=O)C2CC2)CC1
    1, 0
CCOC(=O)C1(CCOC)CCN(Cc2ccnc3ccccc23)CC1
    5&6, 3&1
COCC(=O)N(Cc1cc(NC(=O)c2ccco2)ccc1N(C)C)C(C)c1ccccc1 (centres undefined)
    -1, 10
Cc1nnc(CN(CC2CCC2)CC(F)(F)F)o1
    5, 1
CC(Sc1nc2ccccc2n1C)C(=O)Nc1ccccc1Cl (centres undefined)
    -1, -2
CCn1c(C2CCN(Cc3ccc(C4CCCO4)s3)CC2)n[nH]c1=O (centres undefined)
    8, 5
Cc1cc(C(=O)N2CCOc3ccc(CN4CCOCC4)cc3C2)c2ccc(F)cc2n1
    16, 7
N=C1/C(=C/c2ccc3c(c2)OCO3)C(=O)N=C2SN=C(SCc3ccccc3)N12
    3, 1
CCOC(=O)c1nc2ccccc2nc1N1CCCN(S(=O)(=O)c2ccccc2C#N)CC1
    4, 0
COc1ccccc1C1NC(C(=O)O)Cc2c1[nH]c1ccccc21 (centres undefined)
    -6, -11
CCOC(=O)C1(CC2CC2)CCN(C(=O)C(C)Oc2cccc(Cl)c2)CC1 (centres undefined)
    -6, -10
CC(=O)Nc1ccc(NC(=O)CCN2C(=O)c3ccccc3C2=O)cc1
    -3, -7
CCc1noc(CN(C)C(=O)NCc2c(C)cc(C)cc2C)n1
    0, -3

Next section:
Every second line gives: NPYLR7 agonist, NPYLR7 agonist max-min
CN(C)CCCNc1ncnc2c1C(c1ccccc1Cl)c1ccc(O)cc1O2 (centres undefined)
    7, 2
CC(C)c1cc(C(C)C)n(C2CCN(C(=O)COCc3ccccc3)CC2)n1
    19, 14
Cc1ccsc1S(=O)(=O)N1C[C@@H]2[C@@H]3CC[C@@H](C3)[C@@H]2C1
    0, -3
CC1CC(C)CN(CCNC(=O)NCc2ccccc2F)C1 (centres undefined)
    0, 0
CCn1c(C2CCCNC2)nn(Cc2cccc3cccnc23)c1=O (centres undefined)
    11, 5
CCCC1COCCN1C(=O)c1cc(=O)c2ccccc2o1 (centres undefined)
    -5, -5
Cc1cccc(OC2CN(C(=O)Nc3nc(C)ns3)C2)c1
    -3, -7
CC(C)(NS(=O)(=O)c1ccccc1Cl)c1ccccc1
    -5, -6
NC(=O)CCOc1ccccc1NC(=O)c1cc(Cl)cc(Cl)c1
    1, 1
COc1ccc(NC(=O)Nc2nc([C@@H]3O[C@H](CO)[C@@H](O)[C@H]3O)cs2)cc1OC1CCCC1
    -2, 22
Cc1cccc2c1O[C@H]1[C@H](C(=O)O)CN(C(=O)c3cc4ccccc4s3)[C@@H]21
    2, 9
Cc1nc(C)c(CN2CCCCC2C(=O)Nc2ccc(Oc3ccccc3)nc2)nc1C (centres undefined)
    0, -5
CCCCN(CC(=O)Nc1c(-c2ccccc2)c(C)nn1-c1ccc(OC)cc1)C(=O)NCC(=O)OCC
    -2, 5
Cc1ccc(N2CCN(C(=O)CC3(c4ccc(-c5ccccc5)cc4)CC(=O)N(C)C3=O)CC2)c(C)c1 (centres undefined)
    27, 13
Fc1ccccc1N1CCN(c2nc(-c3ccco3)nc3ccccc23)CC1
    -5, 0
COc1ccccc1-c1cc(C(=O)NC2CC2)nc2cc(-c3ccccc3)nn12
    4, 15
COc1cccc(CSc2nnc(C(C)NC(=O)C(C)(C)CCl)n2-c2ccc([N+](=O)[O-])cc2)c1 (centres undefined)
    17, 6
Cn1nnnc1SCc1nc(N)nc(N2CCCCC2)n1
    -2, -3
C=CCN1C(=O)c2cccc3c(Cl)ccc(c23)C1=O
    3, -7
N#Cc1c(NC(=O)c2ccc(Cl)s2)sc2c1CCCC2
    -3, -5

Continued.
Every second line gives: NPYLR7 agonist, NPYLR7 agonist max-min
CC1CN(S(=O)(=O)c2cc(C(=O)O)c(Cl)cc2Cl)CCO1 (centres undefined)
    6, 2
COc1ccc(N2CCN(Cc3cc(=O)c(OC)cn3CC(=O)Nc3cccc(OC)c3)CC2)cc1
    0, -2
Cc1cccc(OCCN(C)C(=O)c2ccc(=O)[nH]c2)c1
    -1, -1
COCc1nn2c(nnc3c(=O)n(Cc4cccnc4)ccc32)c1-c1ccc(F)cc1
    0, 1
CC1(C)CC(=O)C=C(C(=O)N2CCC3(CCCCC3)C2)O1
    3, 6
O=C(Nc1ccccc1)N1CCCC(OCc2ccc(F)c(F)c2)C1 (centres undefined)
    -2, 0
CCOc1cccc(C2c3c(oc4ccc(F)cc4c3=O)C(=O)N2c2cc(C)on2)c1 (centres undefined)
    0, 0
COc1ccc(S(=O)(=O)c2c(C)cc(C)n(CC(=O)NCc3ccc(C)cc3)c2=O)cc1
    0, -11
CCN(CC)CCN(C(=O)c1ccccc1Br)c1nc2cc3c(cc2s1)OCO3
    -6, -10
CCn1cc(C(=O)NCC(NC(=O)OC(C)(C)C)C(C)C)cn1 (centres undefined)
    2, -1
Cc1cc(C(=O)CSc2nnc(C3CC3)n2C2CC2)c(C)n1Cc1ccco1
    -8, -1
N=c1ccc(Br)cn1CC(N)=O
    -1, 1

Some of the entries so far, with bars between the fields.
smiles | NPYLR7 agonist | NPYLR7 agonist max-min
CC1(C)CC(=O)C=C(C(=O)N2CCC3(CCCCC3)C2)O1 | 3 | 6
O=C(Nc1ccccc1)N1CCCC(OCc2ccc(F)c(F)c2)C1 (centres undefined) | -2 | 0
CCOc1cccc(C2c3c(oc4ccc(F)cc4c3=O)C(=O)N2c2cc(C)on2)c1 (centres undefined) | 0 | 0
COc1ccc(S(=O)(=O)c2c(C)cc(C)n(CC(=O)NCc3ccc(C)cc3)c2=O)cc1 | 0 | -11
CCN(CC)CCN(C(=O)c1ccccc1Br)c1nc2cc3c(cc2s1)OCO3 | -6 | -10
CCn1cc(C(=O)NCC(NC(=O)OC(C)(C)C)C(C)C)cn1 (centres undefined) | 2 | -1
Cc1cc(C(=O)CSc2nnc(C3CC3)n2C2CC2)c(C)n1Cc1ccco1 | -8 | -1

Two entries from above, bar-delimited:
mol | NPYLR7 agonist | NPYLR7 agonist max-min
Cc1cccc(OCCN(C)C(=O)c2ccc(=O)[nH]c2)c1 | -1 | -1
COCc1nn2c(nnc3c(=O)n(Cc4cccnc4)ccc32)c1-c1ccc(F)cc1 | 0 | 1

Not all compounds are listed. The share of hits here may be higher or lower than overall.
